Screens as filed in PubChem BioAssay.
Cruzain inh noDet = cruzain (T. cruzi) inhibition without detergent; P25779; purified cruzain, Z-FR-AMC fluorescence, no detergent; Potency, µM, inactives show max response, negative = inhibition, actives largely listed as inhibitors; 2.3% of 200,000 active; AID 1476; active = well fitted curve in the direction sought with a large enough effect; inconclusive = small, poorly fitted or top-dose-only effect, or another doubt; inactive = no such curve, though single readings can be large; an effect the other way counts as inactive or inconclusive;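 also: plate controls were enzyme without inhibitor for no effect and buffer without enzyme for full effect; nearly all actives have a fitted effect of over 40% in size; top concentration of the series not given in the record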
Target sequence (P25779 123-467 limits assumed): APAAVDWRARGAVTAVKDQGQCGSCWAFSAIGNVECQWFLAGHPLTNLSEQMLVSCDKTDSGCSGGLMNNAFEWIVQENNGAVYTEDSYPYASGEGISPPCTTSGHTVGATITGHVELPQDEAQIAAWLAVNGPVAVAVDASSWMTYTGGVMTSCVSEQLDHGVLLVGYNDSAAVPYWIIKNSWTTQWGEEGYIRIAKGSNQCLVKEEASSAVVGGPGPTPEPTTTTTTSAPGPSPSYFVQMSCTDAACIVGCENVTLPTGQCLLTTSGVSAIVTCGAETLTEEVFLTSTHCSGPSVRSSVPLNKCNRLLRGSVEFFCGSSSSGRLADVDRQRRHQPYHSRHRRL
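Purified cruzain at 1.5 nM, pre-incubated 15 min with compound at room temperature in 100 mM sodium acetate pH 5.5, 5 mM DTT, 0.00005% Triton X-100. Reaction started with 2 uM Z-FR-AMC; AMC fluorescence increase over 60 s gives rate.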
NS1 function inh = influenza NS1 inhibition; S. cerevisiae slowed by influenza A NS1, growth recovery by OD600; Potency, µM (highest dose often 46.1 µM), for inactives: top-dose activity, positive = more growth; 0.4% of 270,000 active; AID 2326; also: actives are rising curves; nearly all actives have a fitted effect of over 50% in size
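In this qHTS, NS1 from influenza A is expressed in budding yeast, where it slows growth. Cells are switched from glucose to 2% galactose medium (pH 6.0, -URA), treated with compound, and growth recovery is read at OD600.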
StopGo reporter = FMDV 2A StopGo reporter, luciferase signal. human cells with a luciferase reporter of 2A StopGo recoding; control for the full effect not named in the record. Potency, µM (series often up to 57.9 µM), for the others: at the highest dose signal change, negative = less light. 1.2% of 410,000 active; active = well fitted falling curve with a large enough effect; inconclusive = small, poorly fitted or top-dose-only effect; inactive = no such curve, though single readings can be large or run the other way; tested in HEK293T cells; also: % is scaled to controls: 0 for no effect and ±100 for the full control effect; nearly all actives have a fitted effect of over 45% in size; luciferase light after 4 h
SARS PLP yeast = inhibitors of SARS-CoV papain-like protease in yeast; S. cerevisiae expressing SARS-CoV PLpro, growth rescue; control for the full effect not named in the record; Potency, µM (doses to about 32.9 µM), inactives show at the top dose activity, positive = growth rescue; 0.19% of 330,000 active; also: 0% is about no effect; nearly all actives have a fitted effect of over 55% in size; growth read by luminescence after 48 h
Cruzain inh Det = inhibitors of Trypanosoma cruzi cruzain with detergent; purified cruzain, Z-FR-AMC fluorescence, 0.01% Triton; P25779; Potency, µM, for inactives: max response, negative = inhibition, most hits filed as inhibitors; 0.43% of 200,000 active; AID 1478; active = well fitted curve in the direction sought with a large enough effect; inconclusive = small, poorly fitted or top-dose-only effect, or another doubt; inactive = no such curve, though single readings can be large; an effect the other way counts as inactive or inconclusive;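 also: plate controls were neutral wells for no effect and buffer without enzyme for full effect; nearly all actives have a fitted effect of over 40% in size; top concentration of the series not given in the record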
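Purified cruzain (1.5 nM final) was preincubated with compounds for 15 min at room temperature in 100 mM sodium acetate pH 5.5, 5 mM DTT, 0.01% Triton X-100. Reaction started with 2 uM Z-FR-AMC; AMC fluorescence change over 60 s gave activity.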
Lassa entry inh = blocks Lassa virus binding to or entry into cells; Lassa virus pseudotype entry inhibition, cell reporter; control for the full effect not named in the record; Potency, µM (highest dose often 37.9 µM), inactives show top-dose activity change, negative = inhibition, actives largely listed as inhibitors; 1.2% of 300,000 active; AID 540256; active means well fitted inhibition curve with a large enough effect; inconclusive means small, poorly fitted or top-dose-only effect, or effect the other way; inactive means flat fitted curve, though single readings scatter; tested in HEK293 cells; also: % is scaled to controls: 0 for no effect and ±100 for the full control effect; nearly all actives have a fitted effect of over 50% in size; luciferase read-out
Marburg entry inh = blocks Marburg virus binding to or entry into cells. Marburg virus pseudotyped entry inhibition, cell reporter; control for the full effect not named in the record; about a third of the inactives were read at about 46 µM. Potency, µM (doses to about 37.8 µM), for the others: at the top dose activity change, negative = inhibition, most hits filed as inhibitors. 1.8% of 300,000 active; active = well fitted inhibition curve with a large enough effect; inconclusive = small, poorly fitted or top-dose-only effect, or effect the other way; inactive = flat fitted curve, though single readings scatter; tested in HEK293 cells; about a fifth of its hits are not listed in these tables; also: % is scaled to controls: 0 for no effect and ±100 for the full control effect; luciferase read-out
RE007 growth inh = less growth of the S. pombe RE007 Vpr strain. Potency, µM (top dose mostly 92.2 µM), for inactives: at the highest dose activity change, negative = less growth. 0.21% of 360,000 active. S. pombe RE007 Vpr strain, BacTiter-Glo ATP luminescence, 24 h; control for the full effect not named in the record; active = well fitted falling curve with a large enough effect; inconclusive = small, poorly fitted or top-dose-only effect; inactive = no such curve, though single readings can be large or run the other way;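 also: % is scaled to controls: 0 for no effect and ±100 for the full control effect; nearly all actives have a fitted effect of over 50% in size; the assay follows cell death caused by Vpr and the record does not say whether a fall means rescue or toxicity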
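Fission yeast RE007 carrying one integrated HIV-1 vpr copy, seeded at OD 0.01 in PMG+AL medium with 23 nL pinned compound. Grown 24 h at 30 degrees; viability read by BacTiter-Glo luminescence after 5 min.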
Active calls of the source: *; [ ] = another dose, or the depositor's remark. Unless noted, calls follow the shape of the dose curve; as a rule, active means well fitted rising curve with a large enough effect; inconclusive means small, poorly fitted or top-dose-only effect; inactive means no such curve, though single readings can be large or run the other way. Potency is read from the fitted curve at half-maximal effect. This is a random part of the collection, and some 4.5% of all compounds hit somewhere here.

Results for COc1ccc(-c2cc(C(=O)N3CCCC3)c3ccccc3n2)cc1 ?
NS1 function inh: -30%; StopGo reporter: 14%; SARS PLP yeast: -4%; RE007 growth inh: -3%

How did CCCn1c2ccccc2c2nnc(SCC(=O)Nc3cccc(C(C)=O)c3)nc21 do in these assays?
Cruzain inh noDet: 15%; StopGo reporter: inconclusive; Cruzain inh Det: -3.9%; Lassa entry inh: -14%[46.1 µM]; Marburg entry inh: inconclusive

Results for CCOCCCNC(=O)CN1C(=O)CCn2nc(-c3cccn3C)cc21 ?
Cruzain inh noDet: 7%; StopGo reporter: 1%; Cruzain inh Det: 0.8%; Lassa entry inh: 16%[46.1 µM]

What do the screens show for `CC(=O)c1cccc(NC(=O)c2cccn(Cc3cccc(C)c3)c2=O)c1`?
Cruzain inh noDet: inconclusive; StopGo reporter: 0%; Cruzain inh Det: -7.3%; Lassa entry inh: inconclusive

Results for COc1ccc(S(=O)(=O)N2CCOC2CNC(=O)C(=O)NCc2ccccn2)cc1 (centres undefined) ?
StopGo reporter: -2%; Lassa entry inh: -3%; Marburg entry inh: 25%; RE007 growth inh: 0%

Results for N#CCCN1C(=O)C2(OCCO2)c2ccccc21 ?
NS1 function inh: 6%; StopGo reporter: 8%; SARS PLP yeast: 0%; Lassa entry inh: 28%[46.1 µM]; Marburg entry inh: -17%[46.1 µM]; RE007 growth inh: -4%

How did CCOC(=O)[C@@H]1[C@H]2COc3cc(OC)ccc3[C@@H]2N2C(=O)N(c3cccc(F)c3)C(=O)[C@@]12C do in these assays?
NS1 function inh: 9%; StopGo reporter: -4%; SARS PLP yeast: 0%; RE007 growth inh: -12%

What do the screens show for `O=C(c1cc(S(=O)(=O)N2CCOCC2)ccc1Cl)N1CCC(Cc2ccccc2)CC1`?
StopGo reporter: -8%; SARS PLP yeast: -5%; Lassa entry inh: inconclusive; Marburg entry inh: inconclusive; RE007 growth inh: -19%

How did O=C(N/N=C/c1cccc(O)c1)NC1CCCCC1 do in these assays?
StopGo reporter: 28%; SARS PLP yeast: 1%; Lassa entry inh: -17%; Marburg entry inh: -5%[46.1 µM]; RE007 growth inh: -5%

Results for Cc1cccc(CNC(=O)CCCN2C(=O)COc3ccc(C)cc32)c1 ?
Cruzain inh noDet: 20%; StopGo reporter: -35%; Cruzain inh Det: -4.6%; Lassa entry inh: 2%[46.1 µM]; Marburg entry inh: -3%[46.1 µM]

Results for O=C(NCc1ccco1)c1ccc2c(c1)N(Cc1ccccc1F)C(=O)c1ccccc1S2=O (centres undefined) ?
Cruzain inh noDet: inconclusive; StopGo reporter: -22%; Cruzain inh Det: -2.5%; Lassa entry inh: -10%[46.1 µM]; Marburg entry inh: -3%[46.1 µM]

What do the screens show for `Cc1cccc(N/N=C/c2ccccc2O)c1`?
Cruzain inh noDet: inconclusive; NS1 function inh: 18%; StopGo reporter: 68%[activator]; SARS PLP yeast: -39%; Cruzain inh Det: -0.4%; Lassa entry inh: -1%; Marburg entry inh: inconclusive; RE007 growth inh: 21%

What do the screens show for `CC12CC(c3ccccc3O1)N(C(=O)c1ccco1)C(=S)N2c1ccccc1` (centres undefined)?
Cruzain inh noDet: -5%; NS1 function inh: 11%; StopGo reporter: -15%; SARS PLP yeast: -13%; Cruzain inh Det: -6.9%; Lassa entry inh: inconclusive; Marburg entry inh: 16µM*; RE007 growth inh: -11%

How did CC(C)CC1(CCc2ccccc2)C(=O)NC(=O)NC1=O do in these assays?
StopGo reporter: -8%; Lassa entry inh: -2%[46.1 µM]; Marburg entry inh: -20%[46.1 µM]; RE007 growth inh: 5%

How did Cc1ccc(-c2cc(C(F)(F)F)n3ncc(C(=O)NCc4ccco4)c3n2)cc1 do in these assays?
Cruzain inh noDet: -5%; NS1 function inh: 14%; StopGo reporter: inconclusive; SARS PLP yeast: 3%; Cruzain inh Det: 6.6%; Lassa entry inh: -1%; Marburg entry inh: -21%; RE007 growth inh: -9%

What do the screens show for `CC(C)CC1NC(=O)N(CC(=O)N2c3ccccc3NC(=O)C2(C)C)C1=O` (centres undefined)?
NS1 function inh: -2%; StopGo reporter: 5%; SARS PLP yeast: 3%; Lassa entry inh: 24%[46.1 µM]; Marburg entry inh: inconclusive; RE007 growth inh: -15%

How did O=c1[nH]c(=O)n(-c2cccc(Cl)c2)c(O)c1/C=N/c1ccccn1 do in these assays?
Cruzain inh noDet: -10%; NS1 function inh: -4%; StopGo reporter: -14%; SARS PLP yeast: 6%; Cruzain inh Det: -7.4%; Lassa entry inh: -1%; Marburg entry inh: inconclusive; RE007 growth inh: 17%

What do the screens show for `COc1ccc(NS(=O)(=O)c2ccc3oc(Nc4ccc5c(c4)OCCO5)nc3c2)cc1`?
Cruzain inh noDet: inconclusive; NS1 function inh: 1%; StopGo reporter: 8%; SARS PLP yeast: 0%; Cruzain inh Det: -3.2%; Lassa entry inh: inconclusive; Marburg entry inh: -14%; RE007 growth inh: 1%

Results for Cc1cc(C(=O)COC(=O)c2ccccc2Br)c(C)n1CC1CCCO1 (centres undefined) ?
NS1 function inh: 2%; StopGo reporter: 0.4µM*; SARS PLP yeast: -2%; Lassa entry inh: inconclusive; Marburg entry inh: inconclusive; RE007 growth inh: -21%

How did Cc1ccc2nc(Cn3cc(C(F)(F)F)cc(Cl)c3=O)cc(=O)n2c1 do in these assays?
StopGo reporter: 1%; SARS PLP yeast: -1%; Lassa entry inh: 23%; Marburg entry inh: inconclusive; RE007 growth inh: -3%

How did CC(C)(C)NC(=O)NC(=O)CSc1nnc(-c2ccccc2F)n1N do in these assays?
Cruzain inh noDet: -2%; NS1 function inh: -23%; StopGo reporter: -8%; SARS PLP yeast: 2%; Cruzain inh Det: -5.1%; Lassa entry inh: 6%; Marburg entry inh: 1%; RE007 growth inh: -8%

How did COc1cccc(NC(=O)c2ccccc2Oc2ccccc2)c1 do in these assays?
NS1 function inh: -36%; StopGo reporter: -3%; SARS PLP yeast: -9%; RE007 growth inh: -6%

Results for c1ccc(C2OCCN2c2ccccc2)cc1 (centres undefined) ?
StopGo reporter: -15%; Lassa entry inh: inconclusive; Marburg entry inh: -8%; RE007 growth inh: -10%

What do the screens show for `Nc1cc(=O)[nH]c2nnc(SCC(=O)Nc3cccc4ccccc34)n12`?
NS1 function inh: -12%; StopGo reporter: 4%; SARS PLP yeast: 1%; Lassa entry inh: 2%; Marburg entry inh: 4%[46.1 µM]; RE007 growth inh: -2%

What do the screens show for `COCCCNC(=O)CCN1N=C(c2ccccc2)CCC1=O`?
NS1 function inh: -2%; StopGo reporter: -10%; SARS PLP yeast: 2%; RE007 growth inh: 3%

Results for COC(=O)c1ccccc1NC(=O)c1cc2ccccc2o1 ?
NS1 function inh: -8%; StopGo reporter: 1%; SARS PLP yeast: 4%; Lassa entry inh: -1%[46.1 µM]; Marburg entry inh: -11%[46.1 µM]; RE007 growth inh: 1%

How did COc1cc(C(CCN2CCCC2)c2c(OC)cc(OC)c3c(-c4ccccc4)cc(=O)oc23)cc(OC)c1OC (centres undefined) do in these assays?
NS1 function inh: inconclusive; StopGo reporter: 31%[activator]; SARS PLP yeast: -2%; RE007 growth inh: -4%

What do the screens show for `CCCCCCn1c(=O)c(F)cn(Cc2ccc(OC)c([N+](=O)[O-])c2)c1=O`?
Cruzain inh noDet: 1%; NS1 function inh: -12%; StopGo reporter: 0%; SARS PLP yeast: -4%; Cruzain inh Det: -13%; Lassa entry inh: -4%; Marburg entry inh: -2%; RE007 growth inh: 2%

Results for Cc1cccc(C(=O)Nc2ccccc2C(=O)NCc2cccnc2)c1 ?
NS1 function inh: -12%; StopGo reporter: -6%; SARS PLP yeast: -5%; RE007 growth inh: -4%

How did COc1ccc(C(=O)N2CCC(C(=O)Nc3cccc(C)c3)CC2)cc1OC do in these assays?
Cruzain inh noDet: -8%; NS1 function inh: -1%; SARS PLP yeast: 2%; Cruzain inh Det: 5.5%; Lassa entry inh: -1%; Marburg entry inh: 2%; RE007 growth inh: 3%

What do the screens show for `CCO[C@H]1OC(C(=O)N2CCN(C)CC2)=C[C@@H](c2ccc(Br)cc2)[C@@H]1CCCO`?
NS1 function inh: 2%; StopGo reporter: -13%; SARS PLP yeast: 0%; RE007 growth inh: 5%

What do the screens show for `Cc1c(NC(=S)Nc2cccc(Cl)c2)c(=O)n(-c2ccccc2)n1C`?
StopGo reporter: -13%; SARS PLP yeast: 1%; Lassa entry inh: 14%; Marburg entry inh: 15%[46.1 µM]; RE007 growth inh: -9%

How did CCOC(=O)c1ccc(NC2c3ccccc3C(=O)N2c2cccnc2)cc1 (centres undefined) do in these assays?
Cruzain inh noDet: 12%; NS1 function inh: -23%; StopGo reporter: 0%; SARS PLP yeast: -14%; Cruzain inh Det: -3.2%; Lassa entry inh: -4%; Marburg entry inh: 2%; RE007 growth inh: 11%

What do the screens show for `CC(=O)c1c(C)[nH]c(C(=O)OCC(=O)N(C)c2c(N)n(Cc3ccccc3)c(=O)[nH]c2=O)c1C`?
StopGo reporter: 23%; Lassa entry inh: 4%; Marburg entry inh: -13%[46.1 µM]; RE007 growth inh: -9%

Results for CCc1nnc2c(Nc3cccc(C(C)=O)c3)nc3ccccc3n12 ?
Cruzain inh noDet: -1%; StopGo reporter: -13%; Cruzain inh Det: -2.9%; Lassa entry inh: 24%[46.1 µM]

How did Cc1cc(C)nc(SCCC(=O)Nc2ccccc2Cl)n1 do in these assays?
NS1 function inh: 0%; StopGo reporter: 0%; SARS PLP yeast: 0%; Lassa entry inh: -1%; Marburg entry inh: 21%[46.1 µM]; RE007 growth inh: -11%

Results for Cc1ccc2onc(CC(=O)N3CCN(c4ccc(F)cc4)CC3)c2c1 ?
Cruzain inh noDet: 25µM*; StopGo reporter: -15%; Cruzain inh Det: 28µM*; Lassa entry inh: -25%[46.1 µM]

Results for CCOc1ccc(NC(=O)c2nc(S(=O)(=O)Cc3ccccc3F)ncc2Cl)cc1 ?
Cruzain inh noDet: 7%; StopGo reporter: 25µM*; Cruzain inh Det: -4.5%; Lassa entry inh: inconclusive; Marburg entry inh: inconclusive

Results for CSc1ncccc1C(=O)OCC(=O)Nc1nc(C)c(Cl)cc1Cl ?
StopGo reporter: -13%; SARS PLP yeast: -9%; Lassa entry inh: 1%; Marburg entry inh: 11%; RE007 growth inh: -9%
